Hedgehog inh – Hedgehog pathway signaling inhibitors, primary screen, luminescence, Shh-LIGHT2 cells, Gli-luciferase; Shh-LIGHT2 Gli-luciferase reporter, 30 h; inhibition, % (test concentration not listed); hit rate 2.1% among 22,000;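 active means replicate mean of 65% or more; inconclusive means mean lower but half the replicates past it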;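 further: pathway switched on by Shh-conditioned medium diluted 1 in 25 in low serum; 100 nL library stock added to about 40 µL; 0% = median of neutral wells and 100% = positive control level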
YB-1 expr inh – inhibitors of YB-1 gene expression, primary screen, cell-based, fluorescence; AID 434959, 2010; hit rate 0.37% among 30,000; U2OS, qRT-PCR YB-1 vs CDIP delta delta Cp, 16 h; hits give high values; zero = DMSO, each unit about twofold; delta delta Cp (YB-1 minus CDIP) (no concentration beside the values);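 active means delta delta Cp rounded down to an integer at or above 3, about 3 SD of DMSO wells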;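 further: higher means less YB-1 transcript or more CDIP transcript relative to DMSO; stock transfer was 100 nL into about 100 µL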
MITF inhib – inhibitors of MITF, primary screen, MITF inhibitor project, cell-based, luminescence | TRPM1 promoter luciferase, 24 h | inhibition, % (concentration not given with the values) | hit rate 0.28% among 37,000 | AID 2240, 2010;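 active means most replicates at 85% or more, or half of them and the mean; inconclusive means half reach 85% but not the mean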;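 further: human melanocyte line stably carrying TRPM1 promoter luciferase reporter; 0% = vehicle wells and 100% = a positive control; the first replicate is given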
PD-1 reverse act – activators reversing PD-1 mediated T-cell inhibition, primary screen, luminescence, primary human CD4 T cells, PD-L1 beads. activation, % (concentration not given with the values). 29,000 tested, under 10 active. CellTiter-Glo 96 h;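 active means replicate mean of 50% or more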;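 further: 0% = median vehicle wells and 100% = positive control; 100 nL library stock added to about 50 µL; numbers are from one replicate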
* marks the source's active call; other numbers are inactive results; ? = inconclusive; . = not tested or not shown. A portion of the library (hit frequency here may not be typical).

Below each SMILES – Hedgehog inh	YB-1 expr inh	MITF inhib	PD-1 reverse act
C[C@@H]1CN([C@@H](C)CO)C(=O)c2cc(NC(=O)NC3CCCCC3)ccc2O[C@@H]1CN(C)C(=O)Nc1cccc2ccccc12
 : 8	-0.55	-8	-0.5
CC1(C)CC[C@]2(C(=O)O[C@@H]3O[C@H](CO)[C@@H](O)[C@H](O)[C@H]3O)CC[C@]3(C)C(=CCC4[C@@]5(C)CC[C@H](O[C@@H]6O[C@H](CO)[C@@H](O)[C@H](O)[C@H]6O)[C@@](C)(CO)C5CC[C@]43C)[C@@H]2C1 (stereo partly specified)
 : -40	-0.63	-35	-5.6
C[C@@H]1CCCCO[C@H](CN(C)Cc2ccccc2)[C@@H](C)CN([C@H](C)CO)C(=O)c2cc(NS(C)(=O)=O)ccc2O1
 : -20	-0.038	7	.
COc1ccc(CN(C)C[C@@H]2Oc3ccc(NC(=O)Nc4cccc5ccccc45)cc3CC(=O)N([C@@H](C)CO)C[C@@H]2C)cc1
 : 69*	0.11	-8	.
C[C@@H]1CCCCO[C@@H](CN(C)C(=O)CCCN(C)C)[C@@H](C)CN([C@H](C)CO)C(=O)c2cc(N(C)C)ccc2O1
 : -21	0.23	-11	0.7
Cc1noc(C)c1NC(=O)Nc1ccc2c(c1)CC(=O)N([C@H](C)CO)C[C@H](C)[C@H](CN(C)Cc1ccc(-c3ccccc3)cc1)O2
 : .	-0.59	-13	-1.1
Cc1noc(C)c1NC(=O)Nc1cccc2c1O[C@@H](CN(C)C(=O)NC1CCCCC1)[C@@H](C)CN([C@@H](C)CO)C2=O
 : ?	-0.44	-9	1.4
Nc1nc(SCC(=O)N2CCCc3ccccc32)[nH]c(=O)c1-c1ccccc1
 : .	.	-12	1.2
CCc1ccc(OCCCn2cc(/C=C3/C(=N)N4C=CSC4=NC3=O)c3ccccc32)cc1
 : 24	-0.51	13	-0.1
C[C@H]1CN([C@@H](C)CO)C(=O)c2cc(NC(=O)C3CCCCC3)ccc2O[C@@H]1CN(C)CC1CC1
 : -9	-0.029	1	0.3

Below each SMILES – Hedgehog inh	YB-1 expr inh	MITF inhib	PD-1 reverse act
C[C@@H]1CN([C@@H](C)CO)C(=O)c2cccc(NS(=O)(=O)c3ccc(Cl)cc3)c2O[C@H]1CN(C)Cc1ccc(C(=O)Nc2ccccc2N)cc1
 : .	-0.32	-11	0.4
COc1ccc(C)cc1N(CC(=O)N1CCN(c2cc(Cl)ccc2C)CC1)S(C)(=O)=O
 : .	.	-9	-0.2
C[C@@H]1CCCCO[C@@H](CN(C)S(=O)(=O)c2cccs2)[C@@H](C)CN([C@H](C)CO)C(=O)c2cc(NC(=O)Nc3ccc(F)cc3)ccc2O1
 : 32	-0.36	-12	-1.1
C=C(C)[C@@H]1Cc2c(ccc3c2O[C@H]2COc4cc(OC)c(OC)cc4[C@@]2(O)C3=O)O1
 : 45	1.2	66	-2.6
CC(C)NC(=O)Nc1cccc2c1O[C@H](CN(C)S(=O)(=O)c1cccs1)[C@H](C)CN([C@@H](C)CO)C2=O
 : 21	0.033	0	0.8
CC(=O)Nc1ccc(OCc2ccccc2)cc1
 : .	-0.54	-27	-0.4
CCc1cc(-c2n[nH]c(C(=O)O)c2-c2nc(C)cs2)c(O)cc1O
 : .	.	3	-0.9
O=C(CSc1nc2ccccc2[nH]1)Nc1ccc2c(c1)oc1ccccc12
 : .	.	1	1.2
C[C@@H]1CN([C@H](C)CO)C(=O)Cc2cc(NC(=O)Nc3ccc(F)cc3)ccc2O[C@H]1CN(C)C
 : -4	0.093	-7	2.2
Cc1ccc(S(=O)(=O)Nc2ccc3c(c2)C(=O)N([C@@H](C)CO)C[C@@H](C)[C@@H](CN(C)C(=O)Nc2ccc(F)cc2)O3)cc1
 : -5	0.37	-3	-0.2

Three entries from above, sorted by formula weight, ascending:
Below each SMILES – Hedgehog inh	YB-1 expr inh	MITF inhib	PD-1 reverse act
CC(=O)Nc1ccc(OCc2ccccc2)cc1
 : .	-0.54	-27	-0.4
CCc1cc(-c2n[nH]c(C(=O)O)c2-c2nc(C)cs2)c(O)cc1O
 : .	.	3	-0.9
Cc1ccc(S(=O)(=O)Nc2ccc3c(c2)C(=O)N([C@@H](C)CO)C[C@@H](C)[C@@H](CN(C)C(=O)Nc2ccc(F)cc2)O3)cc1
 : -5	0.37	-3	-0.2

Following part
Below each SMILES – Hedgehog inh	YB-1 expr inh	MITF inhib	PD-1 reverse act
Cc1ccc(S(=O)(=O)Nc2cccc3c2O[C@H](CN(C)C)[C@H](C)CN([C@H](C)CO)C3=O)cc1
 : -7	0.066	-1	0.5
C[C@@H]1CN([C@@H](C)CO)C(=O)c2cccc(NC(=O)Nc3ccccc3)c2O[C@@H]1CN(C)S(=O)(=O)c1ccc(F)cc1
 : -36	-0.33	21	-1.0
COc1ccc(NC(=O)N(C)C[C@@H]2Oc3c(NS(=O)(=O)c4ccc(F)cc4)cccc3C(=O)N([C@@H](C)CO)C[C@H]2C)cc1
 : -30	-0.88	-1	1.3
C[C@@H]1CN([C@H](C)CO)C(=O)c2cccc(NC(=O)c3ccc(-c4nccs4)cc3)c2O[C@H]1CN(C)C(=O)Nc1ccc(C(F)(F)F)cc1
 : -21	-0.79	3	1.3
C[C@@H]1CN([C@H](C)CO)C(=O)Cc2cc(NC(=O)Cc3cn(C)c4ccccc34)ccc2O[C@H]1CN(C)CC1CC1
 : -20	0.15	4	0.2
C[C@H](CO)N1C[C@H](C)[C@H](CN(C)C(=O)Nc2ccccc2)Oc2c(NC(=O)c3nc4ccccc4s3)cccc2C1=O
 : 24	0.19	-11	-3.5
C[C@@H]1CN([C@H](C)CO)C(=O)Cc2cc(N(C)C)ccc2O[C@@H]1CN(C)S(=O)(=O)c1cccs1
 : 69*	-0.046	6	.
CC(C)NC(=O)N(C)C[C@H]1Oc2c(NC(=O)Nc3ccccc3)cccc2C(=O)N([C@H](C)CO)C[C@H]1C
 : -60	0.45	1	0.1
Cc1noc(C)c1S(=O)(=O)Nc1ccc2c(c1)C(=O)N([C@@H](C)CO)C[C@@H](C)[C@@H](CN(C)C(=O)Nc1ccc3c(c1)OCO3)O2
 : -34	0.49	-9	-0.5
C[C@H]1CN([C@@H](C)CO)C(=O)c2cccc(NC(=O)c3ccncc3)c2O[C@@H]1CN(C)C(=O)Nc1ccccc1
 : -7	0.41	-11	1.0

Below each SMILES – Hedgehog inh	YB-1 expr inh	MITF inhib	PD-1 reverse act
C[C@@H]1CCCCO[C@H](CN(C)Cc2ccncc2)[C@@H](C)CN([C@H](C)CO)C(=O)c2cc(N(C)C)ccc2O1
 : -13	-0.054	-9	.
CNC(=O)CCC(=O)Nc1ccc(C(=O)OC)cc1
 : .	.	0	4.2
COc1ccccc1NC(=O)C1C=C2C=CC=CC2OC1=Nc1ccccc1F (stereo unspecified)
 : 11	-0.7	18	-0.1
Cc1ccc(-n2c(C)nc3sc4c(c3c2=O)CCC4)cc1
 : 5	5.3*	0	-4.1
C[C@@H]1CN([C@H](C)CO)C(=O)c2cc(NC(=O)Cc3ccccc3)ccc2O[C@@H]1CN(C)Cc1ccncc1
 : -3	-0.26	5	.
Cc1noc(C)c1S(=O)(=O)Nc1ccc2c(c1)CC(=O)N([C@@H](C)CO)C[C@H](C)[C@@H](CN(C)Cc1ccc(C(F)(F)F)cc1)O2
 : 24	0.17	2	.
C[C@@H]1CCCCO[C@H](CN(C)Cc2ccccc2)[C@@H](C)CN([C@H](C)CO)C(=O)c2cc(NC(=O)CCCN(C)C)ccc2O1
 : ?	-0.13	-6	0.4
Cc1ccc(S(=O)(=O)N(C)C[C@H]2Oc3ccc(NC(=O)C4CC4)cc3C(=O)N([C@@H](C)CO)C[C@@H]2C)cc1
 : .	0.18	2	-0.5
C[C@H](CO)N1C[C@H](C)[C@H](CN(C)Cc2ccc3c(c2)OCO3)Oc2ccc(NS(=O)(=O)c3ccccc3)cc2CC1=O
 : -3	0.19	-11	1.0
Cc1cccc(-c2nnc(SCC(=O)Nc3ccccc3F)o2)c1
 : .	.	88*	-0.2

Below each SMILES – Hedgehog inh	YB-1 expr inh	MITF inhib	PD-1 reverse act
COc1ccc(CN(C)C[C@@H]2Oc3ccc(NC(=O)Cc4ccccc4)cc3CC(=O)N([C@H](C)CO)C[C@@H]2C)cc1
 : .	-0.00036	-12	.
Cc1ccc(C(=O)CCNc2ccc3c(c2)oc2ccccc23)o1
 : .	.	-82	-9.8
C[C@H]1CN([C@@H](C)CO)C(=O)Cc2cc(NS(=O)(=O)c3ccccc3)ccc2O[C@H]1CN(C)S(=O)(=O)c1ccc(Cl)cc1
 : 28	-0.12	4	.
Cc1cccc(C)c1OCc1nnc2c3cnn(-c4ccccc4)c3ncn12
 : .	.	18	-6.7
CCCCC(=O)/C=C/n1c(=S)oc2ccccc21
 : .	-0.18	-5	0.0
CNC[C@H]1Oc2ccc(NC(=O)Cc3ccccc3)cc2CC(=O)N([C@@H](C)CO)C[C@H]1C
 : -15	0.12	-11	3.1
C[C@H]1CN([C@@H](C)CO)C(=O)c2cccc(NC(=O)c3ccncc3)c2O[C@@H]1CN(C)C(=O)Nc1cccc2ccccc12
 : -27	0.41	2	-1.4
Nc1ncnc2c1[nH]c(=S)n2CCOc1cccc2ccccc12
 : .	.	-4	-2.5
C[C@@H]1CN([C@H](C)CO)C(=O)c2cccc(NC(=O)Nc3ccc(F)cc3)c2O[C@@H]1CN(C)S(=O)(=O)c1ccc(Cl)cc1
 : 34	-0.41	13	-1.7
C[C@@H]1CN([C@H](C)CO)C(=O)c2cccc(N(C)C)c2O[C@H]1CN(C)C(=O)Nc1ccccc1
 : 0	-0.34	-6	.

Below each SMILES – Hedgehog inh	YB-1 expr inh	MITF inhib	PD-1 reverse act
C[C@H]1CN([C@@H](C)CO)C(=O)c2cc(NC(=O)CCN3CCOCC3)ccc2O[C@@H]1CN(C)Cc1ccc(C(=O)Nc2ccccc2N)cc1
 : .	0.2	8	0.2
C[C@H](CO)N1C[C@H](C)[C@H](CN(C)Cc2ccc(C(=O)Nc3ccccc3N)cc2)Oc2c(NS(=O)(=O)c3ccc(Cl)cc3)cccc2C1=O
 : .	-0.07	43	-0.9
C[C@@H]1CN([C@H](C)CO)C(=O)c2cc(NC(=O)Nc3ccc(F)cc3)ccc2O[C@@H]1CN(C)Cc1ccc(C(F)(F)F)cc1
 : .	0.33	59	-2.1
C[C@@H]1CN([C@@H](C)CO)C(=O)c2cccc(N(C)C)c2O[C@H]1CN(C)S(=O)(=O)c1cccs1
 : 5	-0.26	3	.
COc1ccc(S(=O)(=O)Nc2cccc3c2O[C@H](CN(C)S(=O)(=O)c2c(C)noc2C)[C@H](C)CN([C@@H](C)CO)C3=O)cc1
 : -14	-0.59	-2	.
COc1ccc(/C=C/C(=O)O[C@@H]2[C@@H](O)[C@@H](O)[C@H](O[C@@H]3C=C(CO)[C@H]4[C@H](O[C@@H]5O[C@H](CO)[C@@H](O)[C@H](O)[C@H]5O)OC=C[C@H]43)O[C@H]2C)cc1O
 : 19	0.33	.	.
Cc1noc(C)c1NC(=O)Nc1cccc2c1O[C@@H](CN(C)C(=O)Nc1ccc(F)cc1)[C@@H](C)CN([C@H](C)CO)C2=O
 : -45	0.57	-2	.
C[C@H](CO)N1C[C@H](C)[C@H](CN(C)S(=O)(=O)c2cn(C)cn2)Oc2c(NS(=O)(=O)c3ccc(F)cc3)cccc2C1=O
 : 12	0.23	-10	2.2
C[C@H]1CN([C@@H](C)CO)C(=O)c2cc(NC(=O)Cn3cnnn3)ccc2O[C@H]1CN(C)Cc1ccccc1
 : .	0.15	5	.
CNCCC(Oc1ccccc1OC)c1ccccc1 (stereo unspecified)
 : -5	0.23	4	3.5

Below each SMILES – Hedgehog inh	YB-1 expr inh	MITF inhib	PD-1 reverse act
Cc1ccc(S(=O)(=O)Nc2ccc3c(c2)C(=O)N([C@@H](C)CO)C[C@@H](C)[C@@H](CN(C)S(=O)(=O)c2cn(C)cn2)O3)cc1
 : -13	0.18	2	0.9
C[C@H](CO)N1C[C@H](C)[C@@H](CN(C)Cc2ccc(C(F)(F)F)cc2)Oc2ccc(NC(=O)Nc3ccc4c(c3)OCO4)cc2C1=O
 : -7	-0.31	9	1.5
CC(C)c1cc(C(C)C)c(N)c(C(C)C)c1
 : -30	0.17	-9	-0.7
C[C@@H]1CN([C@@H](C)CO)C(=O)c2cc(NC(=O)Nc3ccccc3)ccc2O[C@H]1CN(C)C(=O)Nc1ccc2c(c1)OCO2
 : -32	-0.4	-9	-0.3
O=C(CN1CCCCC1)Nc1sc2c(c1C(=O)Nc1ccccc1)CCCC2
 : .	.	16	-2.7
CC(C)NC(=O)N(C)C[C@H]1OCCCC[C@@H](C)Oc2ccc(NS(=O)(=O)c3ccc(F)cc3)cc2C(=O)N([C@H](C)CO)C[C@@H]1C
 : 0	0.028	-14	.

Screening data (PubChem BioAssay)
